BJeLR lethal = BJeLR cell viability loss | BJeLR (HRASV12) viability, CellTiter-Glo ATP luminescence, 48 h; reference of the scale not given here | inhibition, % (concentration not given with the values) | 300,000 compounds, 0.17% hits;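 active = replicate mean above 50%; inconclusive = above 50% but judged a plate artefact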;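 note: 50 nL library stock added to about 25 µL; numbers are from one replicate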
Mtb hypoxia inh = inhibitors of hypoxia-regulated fluorescent reporter in Mycobacterium tuberculosis; M. tuberculosis hypoxia-regulated fluorescent reporter, fluorescence; fluorescence inhibition, % (concentration not given with the values); 300,000 compounds, 0.1% hits;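 active = 35 to 45% if threefold the growth effect, above 45% if 1.5-fold the growth effect; inactive = the rest, general growth blockers included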;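 note: wells of about 50 µL received 100 nL stock; 0% = vehicle wells and 100% = reference inhibitor wells; whole bacteria with a GFP reporter of the hypoxia response; strong numbers were not always called active; many hits fall short of the cut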
Bead autofluor = flagged as autofluorescent in microsphere protease counterscreen | compound autofluorescence counterscreen, microsphere flow cytometry; stronger effect = higher value | fluorescence intensity (no concentration beside the values) | 360,000 compounds, 3.1% hits | AID 624483;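 active = at least 3 SD above the mean of all compounds, about 16000 in these data; inconclusive = too few beads counted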;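 note: 100 nL of 1 mM stock went into each well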
PrP UTR inh = inhibition of PrP 5' UTR reporter expression; cell-based PrP 5' UTR mRNA reporter, plate reader; AID 488862; inhibition, % (no concentration beside the values); 340,000 compounds, 0.35% hits;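 active = every replicate at 50% or more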;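 note: 0 = median of the neutral control wells; tested in H4 reporter cells; numbers are from one replicate; inactives centre near -14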
Sa RN4220 lethal = kills Staphylococcus aureus RN4220; S. aureus RN4220 growth, OD600, 16 h; inhibition, % (no concentration beside the values); 330,000 compounds, 0.33% hits;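 active = z-score of -3 or lower and OD600 up to 0.18 on both plates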;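 note: plate controls were untreated cells for no effect and reference antibiotic for full effect; stock transfer was 100 nL into about 80 µL; one replicate is shown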
ugtP null kill = kills S. aureus RN4220 lacking UgtP | S. aureus RN4220 ugtP deletion, OD600 growth, 16 h; some inactives read as strong as hits | growth inhibition, % (concentration not given with the values) | 330,000 compounds, 0.54% hits;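 active = z-score under -3 and OD600 up to 0.15 on both plates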;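 note: plate controls were untreated wells for no effect and antibiotic for full effect; wells of about 80 µL received 100 nL stock; the first replicate is given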
Mtb hypoxia inh growth = further read-out of Mtb hypoxia inh, marked with its call; growth inhibition, %; measured here: M. tuberculosis growth (absorbance);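 0% = vehicle and 100% = reference antibiotic; read after six days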
Starred values were filed as active, the others as inactive; ? = inconclusive; nt = not tested or not shown; & = joins results of further samples.

SMILES | BJeLR lethal | Mtb hypoxia inh | Mtb hypoxia inh growth | Bead autofluor | PrP UTR inh | Sa RN4220 lethal | ugtP null kill
COc1ccc(C(C)(C)C)cc1NC(=O)C1CC(=O)N(C2CCCC2)C1 (stereo not drawn) | nt | 11 | 6 | 2989 | -17 | 5.2 | 11
COC(=O)C1=CNC=C(C(=O)OC)C1c1ccc(Cl)cc1 | -9 | 5 | 10 | 3970 | -7 | 6.7 | -1
CCC(C)Cn1c(S(=O)(=O)O)nc2ccccc21 (stereo not drawn) | -2 | -1 | 0 | 3199 | -7 | -19 | -8
CCOC(=O)c1ccc(N2C(=O)c3n[nH]c(C)c3C2c2ccc(OC)cc2OC)cc1 (stereo not drawn) | -4 | -13 | 1 | 9562 | -8 | -3.3 | -6
CC(OC(=O)CN(C)S(=O)(=O)c1ccc(Cl)cc1)C(=O)Nc1ncc(Cl)cc1Cl (stereo not drawn) | -15 | 6 | 6 | 23244* | -22 | 3.8 | 9
CCC(=O)Nc1nc(=S)ss1 | 2 | nt | nt | 2090 | -7 | 4.6 | 7
O=C(NCCCN1CCN(Cc2ccccc2)CC1)c1nnc(Cc2c(F)cccc2Cl)o1 | 7 | 1 | 12 | 19523* | -4 | 4.5 | 4
COc1ccc(-c2ncc(CN3CCC(CO)(Cc4cccc(OC)c4)CC3)cn2)cc1 | 9 | 3 | 11 | 6792 | -4 | -0.5 | 8
CCOC(=O)c1c(S(=O)(=O)NCC(=O)Nc2cc(C)ccc2OC)c(C)n(C)c1C | 3 | 8 | 4 | 4339 | -22 | 2.1 | 13
C[C@@H]([C@H](O)c1ccccc1)N(C)C(=S)Nc1ccccc1 | 6 | 6 | -4 | 3072 | -22 | -3.7 | 0
COc1cccc(OC)c1OCC(O)CN1CCN(c2ccc(F)cc2)CC1 (stereo not drawn) | -1 | 5 | 0 | 3558 | -8 | 3.3 | 5
CCN(CC)C(=S)SCC(=O)c1ccc(F)cc1 | -4 | nt | nt | 3813 | -71 | 15 | 22
O=C(CN(Cc1cccs1)C(=O)CSc1nnc(COc2ccccc2)o1)NC1CCCCC1 | -1 | -2 | 11 | 3218 | 10 | 19 | 2
O=C(COc1ccccc1F)NNC(=O)c1ccc(N2CCCCC2)c([N+](=O)[O-])c1 | 2 | 4 | 0 | 2008 | -15 | 4.5 | 6
O=C(c1ccc2c(c1)OCO2)N1CCN(c2ccccn2)CC1 | -14 | 2 | 6 | 2499 | -17 | -0.4 | 4
C=CCn1c(SCC(=O)NC2CCCc3ccccc32)nnc1-c1ccncc1 (stereo not drawn) | -5 | -3 | -3 | 2416 | -8 | 6.2 | 3
COCCN(C(=O)c1ccc(N(C)S(=O)(=O)c2ccc(C)cc2)cc1)c1c(N)n(CC(C)C)c(=O)[nH]c1=O | nt | 1 | -2 | 2843 | -17 | 2.9 | 8
CSc1ncc(CN2CCCC(C(=O)c3ccc(C(C)(C)C)cc3)C2)cn1 (stereo not drawn) | 3 | 12 | 14 | 5861 | -1 | 3.6 | 2
COc1ccc(-n2c(O)c(C(C)=NCC3CCCO3)c(=O)[nH]c2=O)cc1 (stereo not drawn) | -11 | 18 | 3 | 4409 | -16 | 4.9 | 4
Cc1ccc(NC(=O)CCC(=O)OCC(=O)c2ccc(Oc3ccc([N+](=O)[O-])cc3)cc2)c(C)c1 | -4 | 5 | 12 | 17075* | -17 | 7.7 | 2
COc1cc(C(=O)NCCC(=O)NCCCN2CCCCC2C)cc(OC)c1OC (stereo not drawn) | 10 | -2 | -14 | 24313* | -5 | 0.0 | 0
Cc1cc(CNC(=O)Cc2ccccc2)c2ccccc2n1 | 0 | 16 | 12 | 3203 | -14 | 6.4 | 2
N/C(=N\OC(=O)CC1CCCCC1)c1ccc(Cl)cc1 | -4 | nt | nt | 4364 | -23 | nt | nt
CC(=O)Nc1ccc(S(=O)(=O)N2CCCN(S(=O)(=O)c3ccc(NC(C)=O)cc3)CC2)cc1 | -5 | 5 | 12 | 9007 | -10 | 5.9 | 0

Gathered by group: the compounds so far containing two or more sulfur atoms (four)
SMILES | BJeLR lethal | Mtb hypoxia inh | Mtb hypoxia inh growth | Bead autofluor | PrP UTR inh | Sa RN4220 lethal | ugtP null kill
CCC(=O)Nc1nc(=S)ss1 | 2 | nt | nt | 2090 | -7 | 4.6 | 7
CCN(CC)C(=S)SCC(=O)c1ccc(F)cc1 | -4 | nt | nt | 3813 | -71 | 15 | 22
O=C(CN(Cc1cccs1)C(=O)CSc1nnc(COc2ccccc2)o1)NC1CCCCC1 | -1 | -2 | 11 | 3218 | 10 | 19 | 2
CC(=O)Nc1ccc(S(=O)(=O)N2CCCN(S(=O)(=O)c3ccc(NC(C)=O)cc3)CC2)cc1 | -5 | 5 | 12 | 9007 | -10 | 5.9 | 0

Later entries:
SMILES | BJeLR lethal | Mtb hypoxia inh | Mtb hypoxia inh growth | Bead autofluor | PrP UTR inh | Sa RN4220 lethal | ugtP null kill
COc1ccc(CNS(=O)(=O)NCc2ccc(C)cc2)cc1 | 0 | 6 | 0 | 2562 | -16 | 4.5 | 3
Cc1csc2nc(O)c(C(=O)NCCC3=CCCCC3)c(=O)n12 | 0 | 5 | 14 | nt | -9 | 2.7 | 52
COc1nc(OC)nc(Oc2ccc(Cl)cc2[N+](=O)[O-])n1 | 0 | 4 | 3 | 2143 | -21 | 0.6 | 0
CCC1=NC(c2ccc(OC)cc2)N(O)C1(C)C (stereo not drawn) | 3 | 7 | 18 | 2846 | -21 | -11 | -6
O=[N+]([O-])c1cc(C=NNc2nc(N3CCOCC3)nc(N3CCOCC3)n2)ccc1Cl | nt | -2 | 10 | nt | nt | 5.3 | 4
CN(CC(=O)Nc1ccc(F)c(F)c1F)C(=O)C1=COCCO1 | 7 | 9 | -1 | 5901 | -20 | 0.3 | -1
Cn1c(N)c(C(=O)CSc2nnnn2-c2ccccc2)c(=O)n(C)c1=O | 5 | -6 | 0 | 4482 | -12 | -2.6 | 0
Cc1cnc(C(=O)OCC(=O)N2CCC(C)CC2)cn1 | nt | 2 | 4 | 5548 | -18 | 4.7 | 0
Cc1ccc(S(=O)(=O)N(C)c2ccc(OCC(=O)OCc3cccc(Br)c3)cc2)cc1 | nt | 7 | 6 | 3831 | -13 | 7.8 | 13
COc1cc(OC)nc(Oc2ccccc2C(=O)Oc2ccc(Cl)cc2)n1 | 0 | -5 | 1 | 10616 | -44 | -6.5 | 33
O=S(=O)(c1ccc(OCC(O)CN2CCC(Cc3ccccc3)CC2)cc1)N1CCOCC1 (stereo not drawn) | 6 | 9 | 4 | 12752 | 4 | 0.2 | 3
COc1ccc(Cl)cc1N1CC(c2nc3ccccc3[nH]2)CC1=O (stereo not drawn) | -2 | 1 | 0 | 6055 | 4 | -2.4 | 5
COc1ccc(S(=O)(=O)NN=C(C)c2ccc(Cl)cc2)cc1 | nt | 9 | 0 | nt | nt | 2.2 | 3
Cc1ccc2nc(C)c(C(=O)NN=Cc3cccc([N+](=O)[O-])c3)cc2c1 | nt | 6 | -1 | nt | nt | 0.8 | -4
O=[N+]([O-])c1ccc(NN=Cc2ccc(OCc3cccc4ccccc34)cc2)nc1 | nt | -8 | 9 | nt | nt | -5.2 | -5
CC(=NNc1ccccc1[N+](=O)[O-])c1ccccc1O | nt | 3 | -1 | nt | nt | 8.2 | -8
CC(C)(C)C(O)(CC#CCN1CCCC1)c1ccccc1 (stereo not drawn) | nt | -6 | 2 | 3533 | 53 | 0.8 | 3
CCOC(=O)c1cnn(Cc2ccc(C)cc2)c1N | -1 | 4 | 2 | 4155 | -9 | 12 | 3
CC(=O)c1ccc(NS(=O)(=O)c2ccc(N/C=C/C(=O)c3ccc(F)cc3)cc2)cc1 | -6 | -1 | -3 | 4841 | -14 | 1.0 | 11
COc1cccc(NC(=O)N2CCCC(C(=O)NC3CCCCC3C)C2)c1 (stereo not drawn) | -2 | nt | nt | 5879 | -7 | nt | nt
O=C(O)c1ccc(/C=N/NC(=O)c2cc(-c3ccc4c5c(cccc35)CC4)n[nH]2)cc1 | -5 | nt | nt | 2073 | -13 | nt | nt
CCOc1ccc(/C=N/NC(=O)c2[nH]ncc2Br)c(O)c1 | 10 | nt | nt | 3870 | -25 | nt | nt
CC1CCc2cc(F)ccc2N1C(=O)CSc1nnc2c(n1)[nH]c1ccccc12 (stereo not drawn) | 0 | 12 | 2 | 2206 | -5 | 8.1 | -19
COc1ccc(C(C)=NOCC(=O)N=Nc2c(O)[nH]c3ccc(Br)cc23)cc1 | nt | 5 | 2 | nt | nt | -3.8 | -20
CC(=O)NC(CCCCNC(=S)NC1CCCCC1)C(=O)O (stereo not drawn) | -4 | 15 | -2 | 4638 | -6 | 6.1 | 4
CCC(C(=O)NC1CCCCCC1)n1nc(C)n2c(cc3occc32)c1=O (stereo not drawn) | 9 | 2 | 4 | 5262 | -17 | 1.7 | 2
Cc1ccc(N2C(=O)N3C4c5ccccc5OCC4C(c4ccccc4)[C@@]3(C)C2=O)cc1 (stereo partly drawn) | nt | -14&11 | 11&2 | nt | nt | -2.7&-4.7 | -3&-20
O=C(COc1ccc2c3c(c(=O)oc2c1)CCC3)Nc1ccc(CN2CCOCC2)cc1 | -3 | 2 | 7 | 5365 | -3 | -0.1 | 13
COc1ccccc1C(CNC(=O)c1cccc(S(=O)(=O)Nc2ccc(C)cc2)c1)N(C)C (stereo not drawn) | -2 | 16 | 6 | ? | -23 | 1.5 | 2
Cc1ccccc1NC(=S)NC1(C)CCS(=O)(=O)C1 (stereo not drawn) | 7 | 9 | 5 | 2400 | -14 | 1.6 | 2
CCC(C(=O)Nc1ccccc1Cl)n1nc(C)c2c(C)n(-c3ccccc3)nc2c1=O (stereo not drawn) | 0 | 9 | 5 | 5263 | -16 | -2.5 | 6
Cc1cc(NC(=O)CN2C(=O)NC(C)(CCc3ccccc3)C2=O)no1 (stereo not drawn) | 1 | 13 | 3 | 4363 | -5 | 9.1 | 5
Cc1cc(SCC(=O)OCC(=O)c2c(N)n(C)c(=O)n(C)c2=O)c(C)cc1Br | -5 | -5 | 11 | 4612 | -8 | 10 | 9
Cc1[nH][nH]c(=O)c1C | nt | 3 | 7 | 2890 | -21 | 2.1 | -4
Cc1ccc(NC(CNS(=O)(=O)c2ccc(Cl)cc2)c2ccccc2)cc1 (stereo not drawn) | 6 | nt | nt | 5870 | -16 | 4.5 | -14
COc1ccc(Br)cc1C1CC(=O)N2CN(Cc3ccccc3)CSC2=C1C#N (stereo not drawn) | 2 | -1 | 4 | 5835 | -5 | -15 | -7
O=C(O/N=C(\c1ccccc1)c1ccccn1)c1cccc2ccccc12 | 0 | nt | nt | 2512 | -12 | nt | nt
O=C(CN1C(=O)NC2(CCCC2)C1=O)Nc1ccc(OC(F)(F)F)cc1 | 3 | 11 | 6 | 3958 | -21 | 2.7 | 4
Cc1cc(C)c(S(=O)(=O)Nc2ccc3[nH]c(=O)[nH]c3c2)c(C)c1 | -1 | 2 | 21 | 4912 | 6 | 5.5 | 19
COc1cc2ccccc2cc1C(=O)N/N=C/c1cccnc1 | -1 | nt | nt | 5518 | 17 | nt | nt
Clc1ccc(OCCCc2nc(-c3ccncc3)no2)c(Cl)c1 | -9 | nt | nt | 3028 | -17 | -0.8 | -5
Cc1ccccc1C(=O)Nc1ccc(C(=O)N/N=C/c2ccccn2)cc1 | -2 | nt | nt | 3657 | -24 | nt | nt
Nc1nnc(SCC(=O)Nc2cccc(S(=O)(=O)N3CCOCC3)c2)s1 | 4 | -1 | 3 | nt | -2 | 3.5 | 5
Fc1cccc(/C=N/N=C/c2cccc(F)c2)c1 | -16 | nt | nt | 3084 | -53 | nt | nt
COc1ccc(OC)c(S(=O)(=O)N2CCN(Cc3ccccc3)CC2)c1 | -6 | 5 | 8 | 3836 | -19 | 4.8 | 6
CC/C(=N\O)c1c(O)c2c(n(-c3ccccc3)c1=O)CCCC2 | -1 | nt | nt | 1936 | -26 | nt | nt
CN(Cc1ccccc1)c1ccc(C(CC(N)=O)NC(=O)c2ccccc2)cc1[N+](=O)[O-] (stereo not drawn) | -1 | 4 | -3 | 3153 | -2 | -6.9 | -2

Compounds were not picked by outcome; overall some 4% were active at least once.
